Bioassay records from PubChem.
KSHV LANA nucl: inhibitors of KSHV LANA-nucleosome binding, primary screen, biochemical, fluorescence polarization, FITC-LANA1-23, chicken nucleosomes; 0.3% of 51,000 active; z-score (concentration not given with the values); FITC-LANA1-23 / chicken nucleosome fluorescence polarization; stronger effect = lower value;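 active means both repeat wells score below -2 in polarization z-score versus plate sample wells, excluding overly bright wells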;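 further: 100 nL library stock added to about 30 µL; numbers are from one replicate; some results filed as inactive read as strong as hits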
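Test system: purified chicken nucleosomes with FITC-labelled LANA N-terminal peptide (1-23); Input: 240 nM purified chicken nucleosomes (480 nM peptide binding sites), final; Medium: TEN-BT buffer, pH 7.5; Timing: 10–45 min, room temperature; Technique: fluorescence polarization, 480 nm excitation, 535 nm parallel and perpendicular emission; Replication: duplicates.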
Ab BasE inh: BasE siderophore enzyme inhibitors, primary screen, biochemical, Acinetobacter baumannii ATCC 17978, fluorescence polarization. inhibition, % (concentration not given with the values). 0.1% of 84,000 active. purified BasE, fluorescence polarization binding displacement;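 active means both replicates above 25% with normal brightness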;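 further: 0% = negative plate control signal and 100% = positive plate control signal; stock transfer was 100 nL into about 30 µL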
Numbers without * were called inactive; . = not tested or not shown; & = joins results of further samples.

Results follow in this order: KSHV LANA nucl	Ab BasE inh
CC(C)(C)n1nc(-c2ccc3c(c2)OCCO3)c2ccccc2c1=O
  .	0.7
c1ccc(N(c2ccccc2)c2nc(-n3nnc4ccccc43)nc(-n3nnc4ccccc43)n2)cc1
  -0.055	-2.4
O=C(Oc1ccc(-c2ccccc2)nn1)c1ccco1
  -0.29	1.4
C=CCC(O)(CC=C)C(N)C(C)C (stereo not given)
  0.53	2.8
CC(c1nnc(SCc2csc(-c3ccccc3)n2)n1-c1ccc(Cl)cc1)N(C)C (stereo not given)
  .	-0.2
COCCn1c(SCC(=O)c2ccc(F)cc2)nc2ccccc21
  .	0.2
CC(C)Nc1ccc(C(F)(F)F)cn1
  -0.38	2.6
CC(=O)Nc1cccc(C(=O)OCC(=O)NC2CCS(=O)(=O)C2)c1 (stereo not given)
  .	0.8
Cc1cc(Nc2ccc(C(=O)O)cc2)nc(N)n1
  0.6	0.3
Cc1sc2ncn(CC(=O)N(C)Cc3ccccc3)c(=O)c2c1S(=O)(=O)N1CCN(c2ncccn2)CC1
  0.42	-25
CC1CCN(Cc2ccc(NC(=O)NCc3noc4ccccc34)cc2)CC1
  0.64	-4.1
CCN(CC)S(=O)(=O)c1cccc(C(=O)N2CC(O)CC2C(=O)O)c1 (stereo not given)
  -1.2	0.1
O=C1COc2ccc(C(=O)NC3CC3)cc2N1
  1.2	0.4
Cc1[nH]n(-c2ccccc2)c(=O)c1Sc1nc2ccccc2[nH]1
  .	2.8
COc1cc(OC)c(OC)cc1CNC(=O)CCc1c(C)noc1C
  .	1.1
N#C/C(=C\c1ccccc1)C(N)=O
  -0.94	2.7
Fc1ccccc1-c1nc(-c2cccnc2)no1
  .	2.4
COc1cc(OC)c(NC(=O)C2=C(C)C(=O)OC23CCN(C(C)C)CC3)cc1Cl
  .	-3.3
COc1ccc(OC(=O)c2cnc3n(c2=O)CCS3)cc1
  .	-2.5
Cn1c(CNc2nc(-c3ccccc3)cs2)nnc1SCC(=O)c1ccccc1
  -0.63	-0.9

Compound profiles (already shown).
`COc1ccc(OC(=O)c2cnc3n(c2=O)CCS3)cc1` is listed with KSHV LANA nucl = .; Ab BasE inh = -2.5
`N#C/C(=C\c1ccccc1)C(N)=O` is listed with KSHV LANA nucl = -0.94; Ab BasE inh = 2.7
`Cc1cc(Nc2ccc(C(=O)O)cc2)nc(N)n1` is listed with KSHV LANA nucl = 0.6; Ab BasE inh = 0.3

The results go on:
Results follow in this order: KSHV LANA nucl	Ab BasE inh
CC1(C)CNC(=S)NC1
  .	-0.2
CCC/C(O)=C(\C#N)c1nc2ccccc2[nH]1
  -0.15	-7.4
N#C/C(=C\N1CCOCC1)S(=O)(=O)Cc1ccc(Cl)cc1
  0.2	.
O=c1n(-c2ccccc2)c(=O)n2n1C1CCC2C1
  .	0.4
C=CCN1C(=O)/C(=C/C(=O)OCC)c2ccccc21
  0.061	.
N#CCCn1cc(CNCCCn2cnc3ccccc32)c(-c2ccccc2)n1
  .	-0.7
N#CCOC(=O)C1CSC2(c3ccc(Br)cc3)CCC(=O)N12 (stereo not given)
  .	-1.6
N#CCC(=O)NCC1OCCc2ccccc21 (stereo not given)
  0.35	-2.0
C/C(=C\c1ccccc1)C(=O)Nc1cc(C)on1
  -0.66	0.1
Cc1c(C)c2ccc(OCC(=O)O)c(C)c2oc1=O
  -0.42	2.4
CCCSC(=S)NC1CCS(=O)(=O)C1 (stereo not given)
  0.45	-0.9
CCOC(=O)c1cc(-c2ccc(S(=O)(=O)N(CC)CC)s2)on1
  0.67	2.5
CCN1C(=O)/C(=C\c2ccco2)C(C(=O)OC)=C1C
  -1.4	2.0
Cc1ccc(S(=O)(=O)Cn2nnnc2C(C(C)C)N2CCSCC2)cc1 (stereo not given)
  -0.24	1.0
O=C(NCc1ccc2c(c1)OCO2)C1CCCN(S(=O)(=O)N2CCCCC2)C1 (stereo not given)
  0.65	1.1
CCCn1c(=NC(=O)C2CC2)sc2cc3c(cc21)OCO3
  -0.63	0.5
COCCN1Cc2cccc(C(=O)N3CCC(N4CCCCC4)CC3)c2C1=O
  -0.49	0.8
COCCn1c(SC(C#N)Cc2ccc(C)cc2)nnc1-c1cccc(C)c1 (stereo not given)
  .	1.9
COc1cc(NC(=O)c2noc3c2CCC3)cc(OC)c1OC
  0.13	3.8
Cc1csc(NC(=O)CSc2nnc(-c3ccoc3C)o2)n1
  1.5	1.0
Cc1[nH]c(=O)[nH]c(=O)c1NC(=O)CC12CC3CC(CC(C3)C1)C2
  0.47	-2.5
CNCc1ccco1
  .	1.2
O=C(O)CN(CC(=O)O)c1ccccc1
  0.043	0.0
CCOC(=O)N1CCN(C(=O)CN(Cc2cccc(C)c2)S(=O)(=O)c2ccc(Cl)cc2)CC1
  .	-1.7
COc1ccc2c(c1)NC(c1ccc(N(C)C)cc1)c1cccn1-2 (stereo not given)
  -0.95	.
CCOC(=O)c1nnn(CC(=O)NCc2ccc(F)cc2)c1C(=O)OCC
  0.37	0.9
CC(=O)O[C@@H]1[C@@H](O)CN[C@@H]1Cc1ccccc1
  -0.046	1.1
CCOC(=O)/C=C1\SCC(=O)N1CCN(C)Cc1ccc(SC)cc1
  .	-0.3
CC(Cc1ccccc1)C(N)=O (stereo not given)
  0.85	1.4
COc1ccc2cc(/C=N/NC(N)=O)c(Cl)nc2c1
  .	0.8

Entries above that have a thiophene ring, fused or not (2):
Results follow in this order: KSHV LANA nucl	Ab BasE inh
Cc1sc2ncn(CC(=O)N(C)Cc3ccccc3)c(=O)c2c1S(=O)(=O)N1CCN(c2ncccn2)CC1
  0.42	-25
CCOC(=O)c1cc(-c2ccc(S(=O)(=O)N(CC)CC)s2)on1
  0.67	2.5

Following part.
Results follow in this order: KSHV LANA nucl	Ab BasE inh
O=C(Nc1cc(F)ccc1F)C1CCCN(c2ncnc3onc(-c4ccc(F)cc4)c23)C1 (stereo not given)
  .	-0.9
O=C(c1ccccc1)N1N=C2CCCCC2C1(O)C(F)(F)F (stereo not given)
  .	1.4
COC(=O)c1c(NC(=O)CN2CCN(C(=O)c3ccco3)CC2)sc2c1CCC2
  -1.7	1.8
O=C1S/C(=C\c2ccc3c(c2)OCO3)C(=O)N1Cc1ccccc1F
  .	0.2
CC(c1nc2ccccc2[nH]1)N1CCCCC1 (stereo not given)
  -0.2	0.8
O=C(O)COCCN1CCCC1=O
  0.28	0.2
O=C(O)C1(S(=O)(=O)c2ccc(Br)cc2)CCCC1
  .	1.4
COc1c(Cl)cccc1-c1cn2ccc(C)cc2n1
  .	1.1
CN(C)S(=O)(=O)c1ccc(C(=O)N2CCN(Cc3ccc4c(c3)OCO4)CC2)cc1
  .	2.3
CCOC(=O)/C=c1\[nH]c(=O)/c(=C\c2ccc3c(c2)OCO3)s1
  .	6.6
CC1(C)O[C@@H]2[C@@H](CO[C@@]3(COS(N)(=O)=O)OC(C)(C)O[C@@H]23)O1
  -0.099&-0.76&0.89	-0.2
CS(=O)(=NS(=O)(=O)c1cc(S(=O)(=O)c2ccccc2)cs1)c1ccc(Cl)cc1 (stereo not given)
  .	2.5
Brc1ccc(-n2cccc2)cc1
  0.22	.
Cc1cc(C)cc(NC(=O)CCC2=NS(=O)(=O)c3ccccc3N2)c1
  1.1	-2.0
CCn1c(O)c(C=NCc2cccs2)c(=O)n(CC)c1=S
  0.18	2.2
CN(C)S(=O)(=O)c1ccc(=O)n(CC(=O)Nc2ccc3[nH]c(=O)[nH]c3c2)c1
  .	-1.8
C=C(C)CSc1nc2c(C)cccc2[nH]1
  -1.2	0.7
N#Cc1nc2ccccc2[nH]1
  -1.1	5.4
O=C(Nc1cccc(CO)c1)C(F)(F)F
  .	-4.5
Cc1cc(C)nc(SCC(=O)c2ccc(O)cc2O)n1
  0.85	0.8
CC1Cc2ccccc2N1S(=O)(=O)c1cccc(C(=O)NCc2ccco2)c1 (stereo not given)
  .	0.2
CC1=CCC2C(=O)N(c3cccc(C(F)(F)F)c3)C(=O)C2C1 (stereo not given)
  .	2.9
CC(Sc1nnc(CNc2cccc(Cl)c2)n1CCc1ccccc1)C(=O)O (stereo not given)
  -0.28	-1.4
C=CCNc1nc(-c2ccccc2)nc(-c2ccccc2)c1C#N
  -0.21	.
COc1ccc(C(=O)N(c2ccccc2)C2C=CS(=O)(=O)C2)cc1 (stereo not given)
  -0.086	-1.0
COC(=O)CNC(=O)c1n[nH]c(=O)c2ccccc12
  .	2.1
COc1ccc(C)cc1-n1nnnc1Sc1nnnn1-c1ccccc1
  .	-0.1
O=C(CCCSc1nc(-c2ccco2)cc(C(F)(F)F)n1)Nn1cnnc1
  0.57	-0.3
N#Cc1ccc(-c2ccc(OCC3CNC(=O)O3)cc2)cc1 (stereo not given)
  0.56	0.1
CCC(=O)Nc1ccccc1C(=O)NCC1CCCO1 (stereo not given)
  -0.12	-0.1
O=C(O)c1ccc(C(=O)c2cc(C(=O)O)ccc2C(=O)O)cc1
  0.7	-1.6
CC1=NN(c2ccc(Cl)cc2)C(=O)C1CCOC(=O)c1nn(-c2ccccc2)nc1C (stereo not given)
  -0.16	-0.3
CS(=O)(=O)N1CCCc2cc(C(=O)CSc3nnc(CN4CCCC4=O)o3)ccc21
  .	-1.0
CC(C)(C)C(=O)CSc1nnc(Cc2ccccc2F)n1N
  .	0.1
Cc1noc(C)c1COc1ccc2c(C)cc(=O)oc2c1
  0.38	1.9
NNC(=S)Nc1ccccc1Cl
  .	1.3
Cc1cc(NC(=O)Nc2scc(S(=O)(=O)c3ccc(Cl)cc3)c2C)on1
  0.24	0.8
O=C(O)COc1ccc(C2SCCCS2)cc1
  .	-0.6
CCCc1nc(=S)[nH][nH]1
  .	3.7
CCOc1cc(C#N)ccc1OCC(=O)N1c2ccccc2NC(=O)CC1C (stereo not given)
  .	1.8
CC12CCC(C(=O)N(CC#N)CC#N)(OC1=O)C2(C)C (stereo not given)
  -1.1	-0.5
COc1cc(Cl)cc(/C=N/n2c(-c3ccc(C)cc3)n[nH]c2=S)c1O
  0.5	-1.4
NC(=S)c1sccc1CS(=O)c1ccc(Cl)cc1 (stereo not given)
  .	-1.9
COc1ccccc1-n1cnnc1SCc1cccc(Cl)c1
  .	-0.4
Cc1cc(C(=O)CSc2nnc(N)s2)c(C)n1CCc1ccc(Cl)cc1
  .	2.0
COc1ccc(NC(=O)CN2CCC(C)CC2)cc1
  0.69	0.3
CCCn1c(NCCCN(CC)CC)nc2ccccc21
  -0.16	-5.2
CCCOc1ccc2cc(S(=O)(=O)N3CCCC3)ccc2c1
  0.58	-0.5
Cc1c(C(=O)NCCN(C)C)oc2ccc(S(=O)(=O)N3CCCC3)cc12
  -0.2	2.4
Cc1nc2ccc(Br)cn2c1NC(C)(C)C
  0.65	-0.6

Following part
Results follow in this order: KSHV LANA nucl	Ab BasE inh
Fc1ccc2c(c1)CN(c1ccccc1F)CO2
  .	0.0
O=C1c2ccccc2N(Cc2ccc(Cl)cc2)C2=NCCN12
  -0.3	0.2
FC(F)(F)c1cccc(N2CCNC2=S)c1
  .	3.6
O=C(CCSCc1ccccc1F)NCc1cccnc1
  -2.4	0.9
O=C(COC(=O)c1ccc[nH]c1=O)NCC12CC3CC(CC(C3)C1)C2
  .	1.0
CC(C(=O)OCC(=O)c1ccccc1)N1C(=O)C2C3C=CC(C3)C2C1=O (stereo not given)
  .	1.4
O=C(CCc1nc2cccnc2n1Cc1cccs1)NCc1ccc2c(c1)OCO2
  0.45	-1.4
COc1ccc(Cl)cc1-n1c(SCc2ccccc2F)nnc1-c1cc2occc2n1C
  0.13	-0.4
Cc1[nH]nc2c1C(c1cccc3ccccc13)CC(=O)N2 (stereo not given)
  -0.11	-0.3
CCOC(OCC)n1c(=S)n(C(OCC)OCC)c2ccccc21
  .	3.5
CN(C)C(=O)c1ccccc1NS(=O)(=O)c1ccc(F)cc1
  .	0.7
CCNCC(=O)Nc1ccc(S(N)(=O)=O)cc1
  .	-0.2
Nc1cccc(-c2nc3cc(Cl)ccc3o2)c1
  -0.81	-2.0
C=CCNC(=O)c1ccncc1
  .	0.9
CCCCN(Cc1ccco1)S(=O)(=O)c1c[nH]c(C(=O)OC)c1
  0.55	-0.5
Cc1nc2sccn2c1/C=N/NC(=O)C12CC3CC(CC(C3)C1)C2
  .	-0.9
O=C(NCc1ccc(N2CCOCC2)cc1)c1cc(F)cc2c1OCOC2
  .	0.6
COC(=O)c1c(N)sc(C(=O)N2CCCC2)c1C
  -0.99	1.4
O=C1c2ccccc2-c2nc(-c3ccccc3)cc3cccc1c23
  .	2.6
O=C(O)/C=C/C(=O)N(Cc1ccccc1)Cc1ccccc1
  .	2.8
Cc1ccc(S(=O)(=O)c2nc(C(C)(C)C)oc2N2CCOCC2)cc1
  0.45	-1.3
Cc1cccc(OCc2nnc(SCc3csc(Nc4ccccc4C)n3)o2)c1
  .	-7.7
CCCN(CCC)c1nc(OC)nc(OC)n1
  0.64	-3.5
Cc1cc(-c2ccc(C)c(S(=O)(=O)N3CCCN(Cc4ccc(F)cc4)C3)c2)on1
  .	-5.1
Cc1cc(NC(=O)NN2CCOCC2)nn1-c1c(Cl)cc(Cl)cc1Cl
  0.72	0.7

A portion of the library; count on the stated rates, not on these rows.
